CtBP-E1A inh = inhibitors of CtBP/E1A interaction; AlphaScreen GST-E1A/His-CtBP binding, 1536-well; stronger effect = lower value; control for the full effect not named in the record; activity change, % (concentration not given with the values); 340,000 compounds, 0.49% hits; AID 651724; in the data active means activity change below about -65%; inconclusive means about -30% to -65%; inactive means above about -30%; further: on the % scale 0 is the no-effect control and ±100 the full control effect
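Protein mix (5X: 125 nM each GST-E1A, His-CtBP) was incubated with pinned compound 2 h at 37 deg C in dark, in 50 mM Tris pH 8.0 buffer with 300 mM NaCl. Glutathione donor and nickel acceptor beads followed; AlphaScreen signal read after 1 h.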
ClpP mod = qHTS Assay for Activators of ClpP | ATP-dependent Clp protease proteolytic subunit (Bacillus subtilis (strain 168)), P80244 | purified B. subtilis ClpP, FRET peptide cleavage, 20 min | 340,000 compounds, 1.9% hits | Potency, µM (doses to about 57.5 µM), for the others: at the top dose activity change, negative = active; active = well fitted falling curve with a large enough effect; inconclusive = small, poorly fitted or top-dose-only effect; inactive = no such curve, though single readings can be large or run the other way; further: potency means the concentration at half of the fitted maximal effect; the source files actives as falling curves though it sought activators and does not explain the sign; nearly all actives have a fitted effect of over 65% in size; many hits overshoot -100%
Target sequence (P80244 whole entry, looked up): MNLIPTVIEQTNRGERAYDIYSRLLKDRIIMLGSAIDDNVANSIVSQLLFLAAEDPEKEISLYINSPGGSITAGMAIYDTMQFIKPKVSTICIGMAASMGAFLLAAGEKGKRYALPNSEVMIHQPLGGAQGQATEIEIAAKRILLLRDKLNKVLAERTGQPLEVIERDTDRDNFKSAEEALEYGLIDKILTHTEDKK
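Buffer: 100 mM Tris/HCl pH8, 100 mM KCl, 0.05% low protease BSA, 2.5% glycerol, 0.01% Tween-20. ClpP 10 microg/mL final; 20 min RT; delta FRET normalized to ADEP and DMSO controls.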
TRPV1 potentiator = potentiators of human vanilloid receptor 1 (TRPV1) | 320,000 compounds, 0.02% hits | TRPV1-expressing cells, Fluo-8 calcium influx, capsaicin EC20 potentiation; host cell line not named in the record; control for the full effect not named in the record | Q8NER1 | potentiation, % at 8.33 µM; active means potentiation above 80%; inconclusive means 30% to 80%; inactive means below 30%; further: 0% is about no effect
Target sequence (Q8NER1 whole entry, looked up): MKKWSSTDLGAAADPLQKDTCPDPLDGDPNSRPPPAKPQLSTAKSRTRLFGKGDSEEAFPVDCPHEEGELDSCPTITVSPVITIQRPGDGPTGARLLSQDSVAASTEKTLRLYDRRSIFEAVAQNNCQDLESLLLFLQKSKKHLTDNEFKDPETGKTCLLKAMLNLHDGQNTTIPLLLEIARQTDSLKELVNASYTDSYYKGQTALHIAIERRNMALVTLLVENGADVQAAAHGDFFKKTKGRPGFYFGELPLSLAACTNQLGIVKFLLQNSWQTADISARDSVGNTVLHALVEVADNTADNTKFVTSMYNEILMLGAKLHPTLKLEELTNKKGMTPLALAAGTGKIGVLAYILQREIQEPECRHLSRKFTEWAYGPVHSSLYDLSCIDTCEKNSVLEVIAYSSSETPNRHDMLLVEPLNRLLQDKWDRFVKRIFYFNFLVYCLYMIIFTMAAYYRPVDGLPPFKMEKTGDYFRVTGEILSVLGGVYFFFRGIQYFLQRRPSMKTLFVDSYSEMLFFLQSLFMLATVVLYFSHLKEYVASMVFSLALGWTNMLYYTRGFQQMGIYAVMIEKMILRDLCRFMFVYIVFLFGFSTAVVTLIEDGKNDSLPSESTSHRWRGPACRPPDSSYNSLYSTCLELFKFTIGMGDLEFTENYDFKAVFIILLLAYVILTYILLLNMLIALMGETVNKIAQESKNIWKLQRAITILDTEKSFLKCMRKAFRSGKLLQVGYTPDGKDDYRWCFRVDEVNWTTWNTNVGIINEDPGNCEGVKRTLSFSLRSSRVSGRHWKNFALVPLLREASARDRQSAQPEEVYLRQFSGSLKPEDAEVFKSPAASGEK
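TRPV1-expressing cells were cultured overnight at 35.5C and loaded with Fluo-8 calcium dye for 40 to 90 min at room temperature. After a 10 s baseline, compound was added and calcium influx was read kinetically for 3 min (ex 480/em 520 nm).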
gsp ag = agonists of gsp mutant (McCune-Albright syndrome); gsp mutant cells, cAMP HTRF, 30 min; control for the full effect not named in the record; Potency, µM (series often up to 76.9 µM), for inactives: at the highest dose activation (cAMP increase), usual class: activators; 340,000 compounds, 0.13% hits; AID 624287; active = well fitted activation curve with a large enough effect; inconclusive = small, poorly fitted or top-dose-only effect, or another doubt; inactive = no such curve, though single readings can be large or run the other way; cell line not stated here;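 further: phosphodiesterase inhibitor Ro 20-1724 added with compounds to block cAMP breakdown; potency means the concentration at half of the fitted maximal effect; nearly all actives have a fitted effect of over 60% in size; about a fifth of the inactives were tested at one dose only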
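Cells in DMEM/10% FBS with G418 were pretreated with compounds in DMSO plus […] (300 uM stock) for 30 min at 37C. cAMP was measured by HTRF (cAMP-d2 plus anti-cAMP antibody-K) after 30 min at room temperature.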
Sfp PPTase inh = blocks B. subtilis Sfp PPTase activity; Potency, µM, for the others: max response, negative = inhibition, actives largely listed as inhibitors; 310,000 compounds, 3.5% hits; Biochemical Sfp PPTase activity, qHTS; AID 1490; active means well fitted inhibition curve with a large enough effect; inconclusive means small, poorly fitted or top-dose-only effect, or another doubt; inactive means no such curve, though single readings can be large or run the other way;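 further: the enzyme is Sfp with the accession as filed and its product quenches rhodamine fluorescence; potency means the concentration at half of the fitted maximal effect; 0% = enzyme reaction without inhibitor and -100% = no enzyme wells; top concentration of the series not given in the record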
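Fluorescence-quenching assay with 15 nM Sfp, 5 uM rhodamine-CoA and 12.5 uM BHQ-2-labelled ybbR peptide in pH 7.6 Hepes/MgCl2 buffer. Enzyme was pre-incubated with compound for 15 min at room temperature. Rate was taken from the 30-min fluorescence change (525/598 nm).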
gsp antagonist = gsp mutant antagonism | Potency, µM (highest dose often 76.9 µM), for inactives: at the highest dose activity change, negative = inhibition, most hits filed as inhibitors | 340,000 compounds, 0.4% hits | gsp-mutant cells, cAMP HTRF, 30 min; control for the full effect not named in the record; active = falling curve of any shape with a large fitted effect; inconclusive = falling curve, mostly with a smaller effect; inactive = flat or rising curve; cell line not stated here;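 further: intracellular cAMP measured with PDE inhibitor Ro 20-1724 present during compound exposure; potency means the concentration at half of the fitted maximal effect; on the % scale 0 is the no-effect control and ±100 the full control effect; nearly all actives have a fitted effect of over 65% in size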
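HTRF cAMP read-out (cAMP-d2 plus anti-cAMP antibody-K in lysis buffer, 30 min RT). Before lysis, cells are exposed to compounds with […] for 30 min at 37C in DPBS containing Ca/Mg, BSA and Tween 20.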
Menin MLL FP FL = menin-MLL binding inhibition, fluorescein peptide; 290,000 tested, under 10 active; FP activity change, % at 61.4 µM; Fluorescence polarization, fluorescein-MLL peptide displacement from menin; inconclusive = falling polarisation curve, or a change in total fluorescence; inactive = total fluorescence flat and polarisation flat or rising; no compound was filed as active; the % refers to the polarisation; negative = inhibition;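 further: % of control where 0% means no effect; inhibitors lower the polarisation; unlabelled MLL peptide was the positive control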
* marks the source's active call; other numbers are inactive results; u = inconclusive; x = no result given; & = joins results of further samples; [ ] = another dose, or the depositor's remark.

Compound,CtBP-E1A inh,ClpP mod,TRPV1 potentiator,gsp ag,Sfp PPTase inh,gsp antagonist,Menin MLL FP FL
CC(C(=O)Nc1ccccc1Br)N1c2cccc3cccc(c23)S1(=O)=O (stereo not drawn),31,u,19,-16%,8%,-9%,x
CC1CCCCN1Cc1c(O)ccc2c(=O)c(-c3ccccc3)coc12 (stereo not drawn),0,3.6%,19,23%,-7%,-4%,-2.2
C/C(N)=C(/C#N)C(=O)COC(=O)CCSc1ccccc1,3&8,0.9%&-1.3%,15,-20%&-11%,-8%,-17%&-5%,-1.6
CCc1cccc(C)c1NC(=O)CN(C)Cc1ccccc1F,5,-3.7%,-14,-1%,20%,4%,4.6
CC(=O)OCCCN(C)CC/C=C1/c2ccccc2CSc2ccccc21,-10,0.4%,x,-3%[15.4 µM],x,14%,x
Nc1nnc(SCC(=O)NNC(=O)c2ccc([N+](=O)[O-])cc2)s1,x,-1.6%,1,-4%,x,1%,x
NC(=O)c1ccsc1NC(=O)CN1C(=O)C2CC=CCC2C1=O (stereo not drawn),-13,-4.8%,8,-8%,14%,16%,0.3
O=C(NC1CCCCC1)NC1CCN(CC(=O)N2CCOCC2)CC1,0,-1.4%,7,-1%,19%,7%,5.2
O=C(CCCc1ccccc1)Nc1ccnn1C1CCN(Cc2ccccn2)CC1,7,3.5%,-12,-8%[15.4 µM],1%,-1%,x
CCC(=O)N(CCO)Cc1cc2ccc(C)c(C)c2[nH]c1=O,-2,-30%,5,-5%,-7%,10%,0.7
N#Cc1cnc(SCC(=O)Nc2ccccc2C(F)(F)F)nc1N,-18,-20%,-1,-36%[inhibitor],12%,11%,9.7
Cc1ccc(C)c(S(=O)(=O)N(C)c2ccc(OC(=O)C3CCN(C(=O)Nc4ccccc4)CC3)cc2)c1,1,0.5%,x,-25%,x,-10%,x
NC(=S)NN=C1CSSC1,-89*,1.3%,x,-8%,x,x,x
CCC(C)NC(=O)CSc1nc2ccsc2c(=O)n1-c1ccc(OC)cc1 (stereo not drawn),1,-0.8%,2,30%,23%,-1%,2.9
O=C(CCc1nnc(CCc2ccccc2)o1)N1CCCC1c1nccs1 (stereo not drawn),x,0.4%,0,17%,7%,0%,3.0

2 of these compounds in a different format.
CCC(=O)N(CCO)Cc1cc2ccc(C)c(C)c2[nH]c1=O
  CtBP-E1A inh: -2
  ClpP mod: -30%
  TRPV1 potentiator: 5
  gsp ag: -5%
  Sfp PPTase inh: -7%
  gsp antagonist: 10%
  Menin MLL FP FL: 0.7
O=C(NC1CCCCC1)NC1CCN(CC(=O)N2CCOCC2)CC1
  CtBP-E1A inh: 0
  ClpP mod: -1.4%
  TRPV1 potentiator: 7
  gsp ag: -1%
  Sfp PPTase inh: 19%
  gsp antagonist: 7%
  Menin MLL FP FL: 5.2

The main list resumes; the 3 compounds before the break are reprinted first.
Compound,CtBP-E1A inh,ClpP mod,TRPV1 potentiator,gsp ag,Sfp PPTase inh,gsp antagonist,Menin MLL FP FL
NC(=S)NN=C1CSSC1,-89*,1.3%,x,-8%,x,x,x
CCC(C)NC(=O)CSc1nc2ccsc2c(=O)n1-c1ccc(OC)cc1 (stereo not drawn),1,-0.8%,2,30%,23%,-1%,2.9
O=C(CCc1nnc(CCc2ccccc2)o1)N1CCCC1c1nccs1 (stereo not drawn),x,0.4%,0,17%,7%,0%,3.0
COC(=O)CCCCC(=O)OC,3,-0.6%,-1,x,x,-6%,x
O=C(NCc1ccc(OC(F)(F)F)cc1)c1cc(-c2ccccc2)nn1CC1CC(c2cccnc2)=NO1 (stereo not drawn),-1,-3.1%,x,x,x,0%,x
COc1ccc(CNC(C)C(=O)Nc2ccc3ccccc3c2)cc1OC (stereo not drawn),-7,x,4,-2%[15.4 µM],12%,11µM*,2.6
O=C(COC(=O)c1cc(-c2ccc(F)cc2)nc2ccccc12)NCC1CCCO1 (stereo not drawn),0,3.9%,-15,1%,-9%,-26%,-4.4
Cc1ccc(C(=O)N[C@H](C(=O)N2CCN(c3ccccc3F)CC2)C(C)C)cc1,0,x,-12,14%[15.4 µM],6%,-6%,-1.6
CCOc1ccc(N(CC(=O)NCCc2ccccc2)C(=O)CCC(=O)Nc2cc(C)ccn2)cc1,-4,-3.0%,8,3%[15.4 µM],-4%,-8%,x
O=C(NC(=S)Nc1ccc2c(c1)OCCO2)c1cccc(Br)c1,-18,-0.7%,0,26%,-6%,-12%,7.0
O=C(c1cc(COc2ccccc2)on1)N1CCCC(OCc2cccnc2)C1 (stereo not drawn),7,0.3%,-4,-101%[inhibitor],22%,-6%,-0.3
CC(=O)c1ccc(S(=O)(=O)NCCCC(=O)N(C)Cc2ccc3c(c2)OCO3)cc1,0,0.5%,-23,u,x,-3%,x
CCOC(=O)CCNC(=O)CNC(=O)OCc1ccccc1,3,-0.3%,-2,u,25%,-1%,-1.3
CCN(Cc1nc2cc(Cl)ccc2c(=O)[nH]1)C(=O)c1cccc(OCc2c(C)noc2C)c1,2,-1.3%,6,-12%,x,u,x
CCC1(C)OCC(Cn2c3ccccc3c3ccccc32)O1 (stereo not drawn),x,x,1,x,16%,x,-0.6
O=[N+]([O-])c1ccc(Cl)c(S(=O)(=O)Nc2ccc(-c3ccc(N4CCCC4)nn3)cc2)c1,-3,-1.3%,-2,-1%[15.4 µM],x,u,x
O=C(Cc1ncc(C(F)(F)F)cc1Cl)Nc1ccc(F)cc1,8,2.6%,-1,-7%,16%,7%,5.8
COc1cc(NC(=O)CN2CCN(C(=O)c3ccco3)CC2)c(C)cc1[N+](=O)[O-],2,-0.8%,x,-97%[inhibitor],x,x,x
COc1cc(C(=O)Nc2cc3c4c(c2)CC(=O)N4CCC3)cc(OC)c1OC,6,16µM*,5,8%,x,21%,x
CCn1cnc2c1c(=O)n(Cc1csc(-c3ccccc3)n1)c(=O)n2Cc1ccccc1,-8,-24%,7,-8%,4%,9%,1.2
CC1CCN(S(=O)(=O)c2ccc3[nH]cc(C(=O)NCCN4CCOCC4)c(=O)c3c2)CC1,-6,25µM*,15,-5%,-6%,5%,3.1
CCOc1cc(C(=O)Nc2cc3c(cc2N2CCCC2)n(C)c(=O)n3C)cc(OCC)c1OCC,-4,-13%,-21,-2%,-12%,5%,x
COC(=O)c1cc(-c2c[nH]c3ccccc23)n[nH]1,-4,-5.9%,13,1%,-10%,-2%,-0.2
O=C(Nc1ccccc1C(=O)Nc1ccncc1)c1cccc([N+](=O)[O-])c1,-1,1.3%,16,16%[15.4 µM],-2%,-10%,x
CCOC(=O)N1CCN(C(=O)C(CC)n2nc(C)c3sc4ccccc4c3c2=O)CC1 (stereo not drawn),3,-9.6%,x,16%,3%,16%,-0.6
CCC(C(=O)N1CCN(c2ccccn2)CC1)n1nc(C)n2c(cc3occc32)c1=O (stereo not drawn),-6,-17%,-4,u,7%,4%,-0.3
CN(C)C(=O)c1ccc(NC(=O)c2ccccc2Sc2ccccc2C#N)cc1,4,-2.3%,20,-77%[inhibitor],8%,-11%,12
O=C(O)CCc1ccc(-c2ccc(Br)cc2)n1CC(=O)O,-1,-9.5%,0,1%,-34%,6%,7.3
Cc1c(C(=O)Nc2ccc(Cl)cc2)c2ccccn2c1CCc1ccncc1,u,3.6%,0,u,-7%,0%,6.9
O=C1Nc2ccccc2C12OCCCCO2,4,0.4%,-3,28%,2%,-3%,0.7
Cc1ccc2c(c1)nnn2C1CCN(CC(=O)N2c3ccccc3CC2C)CC1 (stereo not drawn),-5,-7.2%,-7,-31%[inhibitor],-2%,-30%,3.2
CCCNS(=O)(=O)c1ccc(CCC(=O)NCc2cccnc2)cc1,-4,-3.3%,8,3%,8%,-2%,0.6
O=Cc1c(NCc2ccccc2F)c2ccccc2[nH]c1=O,7,-0.1%,-8,0%[15.4 µM],11%,-9%,0.4
CC(=O)Nc1ccc(C(=O)NNS(=O)(=O)c2ccc(C)cc2)cc1,6,x,-4,1%[15.4 µM],-7%,5%,-0.4
CN(c1ccc([N+](=O)[O-])cc1C(=O)Nc1ccccc1)C1CCCCC1,13,1.8%,15,25%,3%,-6%,4.0
c1ccc(-c2ccc(-c3csnn3)cc2)cc1,10,88%,9,-2%,8%,-9%,x
COc1cc(C2OC(=O)C3C(c4ccc(OC(C)=O)c(OC)c4)OC(=O)C23)ccc1OC(C)=O (stereo not drawn),13,x,x,30%,x,1%,x
CCOC(=O)C(=O)NCC1CCCN1S(=O)(=O)c1cccs1 (stereo not drawn),4,0.5%,x,-12%,x,x,x
CC(C)NCC(O)COCCOc1ccc(Br)cc1 (stereo not drawn),2,-0.7%,5,-20%,26%,5%,3.7
C#CCOCCOCCOCCNc1nc(N2CCOCC2)nc(N2CCN(C(=O)CCCCCCCCCCNC(=O)[C@H](CO)n3cc(CCCSC)nn3)CC2)n1,0,1.4%,-2,-122%[inhibitor],x,-10%,x
Cc1ccc(C)c(N2CCN(C(=O)c3ccc(NS(=O)(=O)c4c(C)noc4C)cc3)CC2)c1,1,0.1%,4,u,8%,-12%,2.3
O=C1Cc2ccccc2C(c2c(Cl)cccc2Cl)N1 (stereo not drawn),10,-17%,-1,11%[15.4 µM],10%,-3%,-0.8
